# Screens from PubChem.
# NPYLR7 agonist: mosquito NPYLR7 agonism | HEK293T NPYLR7/Galpha15, GCaMP6s calcium fluorescence | 270,000 compounds, 0.15% hits | activation, % at 10 µM | AID 1259423; in the data active = activation above about 40%;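 note: 0% = vehicle and 100% = reference agonist at the receptor; some compounds past the cut are filed as inactive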
# NPYLR7 agonist max-min: second read-out of NPYLR7 agonist, no call of its own (marks repeat the call); activation, %; measured here: Max-Min RFU normalised activation; some inactives read as strong as hits;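 span of the calcium signal over five minutes; 0% = vehicle and 100% = native peptide agonist; compound fluorescence can raise it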
# * hit, by the source's call; & = joins results of further samples. Only part of the results is shown. The share of hits here may be higher or lower than overall.
SMILES,NPYLR7 agonist,NPYLR7 agonist max-min
C#CCOCC(O)CN(CC=C)CC(=O)N1CCc2sccc2C1COc1cccc(OC)c1 (stereo not given),8,7
CC(C)n1c(N2CCNCC2)nc2c1c(=O)[nH]c(=O)n2C,3,0
O=C1NC2(CCCC2)NN1C(=O)c1ccncc1,5,2
C=CCNC(=O)CN(c1ccc(C23CC4CC(CC(C4)C2)C3)cc1)S(C)(=O)=O,0,7
CCOC(=O)C1C(=O)CSC1=Nc1cccc([N+](=O)[O-])c1 (stereo not given),-7,-1
COCCOC(=O)C1=C(C)NC2=C(C(=O)CCC2)C1c1ccccc1OC (stereo not given),-5,-6
COC(=O)CC(C)SCc1nc2cc(F)ccc2o1 (stereo not given),4,3
COc1cccc(-n2nnc(C(=O)NC(C)c3ccc4c(c3)CCO4)c2C)c1 (stereo not given),0,0
Cc1nc2sccn2c(=O)c1NC(=O)CC(c1ccccc1)c1ccccc1,0,-10
COc1ccccc1/C=C/C1=NC(=C\c2cc(Br)cs2)/C(=O)O1,-3,-8
O=c1[nH][nH]c(=O)c2c(N=Nc3c(-c4ccccc4)[nH]n(-c4ccccc4)c3=O)cccc12,4,0
CNS(=O)(=O)c1c(C)cc(C)c(N(C)S(=O)(=O)c2ccccc2)c1C,7,8

# The last five entries of the part before lead into the next.
SMILES,NPYLR7 agonist,NPYLR7 agonist max-min
COc1cccc(-n2nnc(C(=O)NC(C)c3ccc4c(c3)CCO4)c2C)c1 (stereo not given),0,0
Cc1nc2sccn2c(=O)c1NC(=O)CC(c1ccccc1)c1ccccc1,0,-10
COc1ccccc1/C=C/C1=NC(=C\c2cc(Br)cs2)/C(=O)O1,-3,-8
O=c1[nH][nH]c(=O)c2c(N=Nc3c(-c4ccccc4)[nH]n(-c4ccccc4)c3=O)cccc12,4,0
CNS(=O)(=O)c1c(C)cc(C)c(N(C)S(=O)(=O)c2ccccc2)c1C,7,8
O=C(Nc1ccc(Nc2cc(-n3ccnc3)ncn2)cc1)C1CCCC1,-16,-20
O=C(c1ccc2oc(Cc3ccccc3)nc2c1)N1CCC(N2CCOCC2)CC1,5,2
COCCCNc1nc2nonc2nc1N(C)Cc1nc2c(s1)CCCC2,12,4
CCOc1ccccc1CN(C(=O)C1CCCN1C(=O)CC)C1CC1 (stereo not given),0,-4
O=C1N(Cc2ccccn2)C(=O)C2(CCN(C3CCOCC3)CC2)N1Cc1ccccc1,13,5
COC(CNC(=O)c1ccnc(C)n1)c1cccc(Cl)c1 (stereo not given),10&0,8&-1
O=C(c1n[nH]c2c1CCC2)N1CCc2c([nH]c3ccccc23)C1c1ccccc1F (stereo not given),-7,-17
CC(C)c1ccccc1N1C(=O)CSC1c1cccc(NC(=O)c2ccc(F)cc2)c1 (stereo not given),-1,5
O=C(NCCN1CCCC1)c1ccccc1N1CCC(NC(=O)C2CC2)CC1,-1,4
COCCCn1c(C)c(C)n2c3c(=O)n(CCN4CCCCC4)c(=O)n(C)c3nc12,0,8
Cc1ccc(-c2cn3cccnc3n2)cc1NC(=O)c1ccccc1C(F)(F)F,-1,3
OCc1cc(-c2ccccc2OCCn2ccnc2)ccc1F,7,3
N#Cc1ccc(C(=O)N2CCCc3ncccc32)cc1,2,0
Cc1ccc(N2C(=O)N(CCOc3cccc(Br)c3)C(=O)C2C)cc1 (stereo not given),2,11
CCc1ccc(OCCn2c(CO)nc3ccccc32)cc1,0,-4
O=C(c1ccc(F)cc1C(F)(F)F)N1CCN(c2nccc(-c3ccco3)n2)CC1,-4,-3
COc1ccc(Cc2nc3c(c(N4CCOCC4)n2)CN(C(=O)NC24CC5CC(CC(C5)C2)C4)CC3)cc1,9,20
COc1ccc2c(c1)CCc1cc(CCC(=O)NCCc3cccs3)n(-c3ccc4ncsc4c3)c1-2,24,13
CCOC(=O)c1c(C)nn(-c2ccc(C(=O)NCc3ccco3)cc2)c1C,-7,-10
Cc1ccccc1CN1C[C@@H]2C[C@@H](c3cc(CC(C)C)[nH]n3)N3CCC[C@@]23C1=O,6,3
O=c1ccc2c(OCCCCc3ccccc3)c3ccoc3cc2o1,6,-11
Cc1ccccc1-n1nc(C(=O)NCC(C)N(C)C)c2c1CCC2 (stereo not given),-22,-23
CC(C(=O)NCc1ccc(F)cc1)N1C(=O)CSC1c1cccc(C(F)(F)F)c1 (stereo not given),2,11
Cc1c(/C=N\N2C(=O)C3C4C=CC(C4)C3C2=O)c2ccccc2n1Cc1ccccc1Cl (stereo not given),2,42
Cc1c(C)n2c3c(=O)n(Cc4ccc(F)cc4)c(=O)n(C)c3nc2n1CCCl,1,1
COCCCN(Cc1ccc(OS(C)(=O)=O)cc1)C(=O)Nc1cccc(C)c1,3,18
CC(C)c1ccc(CSc2nnc(NC(=O)COc3ccc(Cl)cc3)s2)cc1,4,13
FC(F)Oc1ccc(NC(=S)Nc2cc(Cl)c(Cl)cc2Cl)cc1,1,29
Cn1c(C(=O)O)ccc1[N+](=O)[O-],2,10
Cc1cc[n+](CC(=O)OC23CC4CC(CC(C4)C2)C3)cc1,-12,-23
Cc1noc(-c2cccnc2)c1C(=O)N[C@H]1CCC[C@@H]1OCc1ccccc1,9,10
O=C(NC1CCOCC1)C1CCCN(C2CCN(Cc3cccnc3)CC2)C1 (stereo not given),1,1
Cc1ccc(CN(C)C(=O)c2cc(CC(C)C)[nH]c(=O)n2)o1,21,11
CC1CCC2(CC1)NC(=O)N(NC(=O)c1cnccn1)C2=O (stereo not given),0,10
CCN(C(=O)C1CCN(c2ncccn2)CC1)c1cccc(C)c1C,11,7
COc1ccc2nc(-c3ccc(C)c(NC(=O)CC4CCCCC4)c3)cn2n1,-6,-13
O=C(c1ccc(CSc2ncn[nH]2)o1)N1CCC(Oc2cccnc2)CC1,12,1
CCOP(=O)(OCC)c1nc(-c2ccc(Cl)cc2Cl)oc1NC,-5,-3
COc1ccc2cc(C(=O)NCCc3nnc4n3CCCCC4)ccc2c1,4,1
CCOc1ccc(S(=O)(=O)N2CCCCC2)cc1NC(=O)c1ccccn1,-1,5
O=C(NCC1CCCN(C2CCSCC2)C1)c1cccs1 (stereo not given),-3,-3
CN(CC(=O)NCC1CCCO1)S(=O)(=O)c1ccc2ccccc2c1 (stereo not given),2,1
O=C(Nc1ccc2c(c1)OCCO2)Nc1cccc2cccnc12,-3,-4
Cc1ccsc1[C@@H]1CCN(C(=O)c2coc3c2C(=O)CCC3)C[C@H]1O,-4,-6
COCCN(CC(=O)Nc1cc(C(C)(C)C)nn1-c1ccc(Cl)c(Cl)c1)C(=O)CC(C)(C)C,4,12
CCN(CC)c1ccc(CN(CC2CCCO2)C(=O)c2ccccc2F)c(OS(C)(=O)=O)c1 (stereo not given),2,10
CCc1nc(C)c(C(=O)Nc2c(C)cnn2Cc2cccc(Cl)c2)o1,-1,-3
CN(C)c1ccc(-c2ccnc3c2CC(C)(C(=O)NCC2CC2)O3)cc1 (stereo not given),-1,14
Cn1cc(C(CC(=O)N(CCC#N)Cc2cccnc2)c2cccc(F)c2)c2ccccc21 (stereo not given),-6,1
CN(Cc1cccc(C#N)c1)C(=O)c1ccc2c(=O)[nH]c(=S)[nH]c2c1,-3,-5
CC1CCN(CCOc2ccc(N)cc2)C1 (stereo not given),-1,-7
CCOc1c(Cl)cc(Cl)cc1CNCC1CCNCC1,-10,-16
Cc1cc(C(=O)N(CCCN(C)C)c2nc3ccc(Cl)cc3s2)nn1C,4,2
O=C1CCCN1CCC1CCCCN1C(=O)Nc1cccc(Cl)c1Cl (stereo not given),13,9
Cc1cc(F)ccc1C(=O)N(Cc1ccsc1)CC1CCCO1 (stereo not given),0,4
C=CCOc1c(OC)ccc2c1CN(CC1CC1)C(=O)CCN2C(=O)OCC,-2,2
Cc1cc(C)c2c(n1)nn1c(NC3CCCC3)cc(C)nc21,0,15
CC(=O)c1sc2ccccc2c1OC(=O)c1ccccc1,-3,4
CC(C)(O)C#Cc1cccc(C(=O)NC2(CN3CCOCC3)CCCC2)c1,-5,-9
CC(=O)c1c(C)[nH]c(C(=O)Nc2nccs2)c1C,-3,-2

# (next part)
SMILES,NPYLR7 agonist,NPYLR7 agonist max-min
COc1cc(Cn2nc(-c3cccc(OC)c3)c3sc(C)nc3c2=O)cc(OC)c1,3,2
Cc1ccc(CN2CCN(CC#Cc3ccccc3)CC2CCO)o1 (stereo not given),5,-2
O=C(CSc1nc2c(c(=O)n1-c1ccccc1)SCC2)N1CCCC1,-5,-7
Cn1c(O)c(N=NC(=O)COc2ccc3ccccc3c2)c2cc(Br)ccc21,26,10
CCOc1ccc(CN2CCCn3cccc3C2c2cc(OC)ccc2OC)cc1 (stereo not given),1,-1
O=C1CCC/C=C/CCCC1Sc1ccccc1 (stereo not given),7,9
COc1ccc(NC(=O)c2sc(=O)n(Cc3ccc(C)cc3)c2C)cc1OC,7,3
COc1cccc(C(=O)N2CCC3(CC2)OCC(C(=O)NC(C)c2ccccc2)N3C(=O)c2cccc(F)c2)c1 (stereo not given),0,6
Cc1c(C(=O)N2CCN(C)C3(CCN(C)CC3)C2)cnc2ccnn12,12,2
Cc1cccn2c(CNC(=O)CC3NC(=O)c4ccccc43)cnc12 (stereo not given),-6,-8
COCCN(CC(=O)Nc1cc(C(C)(C)C)nn1-c1ccc(C)cc1C)C(=O)Nc1cccc(OC)c1,-1,3
Cc1ccc(C2=NN3C(C2)c2ccccc2OC3c2cccs2)o1 (stereo not given),1,-1

# Compound profiles, as listed above:
# Profile of `COc1ccc(NC(=O)c2sc(=O)n(Cc3ccc(C)cc3)c2C)cc1OC` → NPYLR7 agonist: 7; NPYLR7 agonist max-min: 3
# Profile of `Cc1cccn2c(CNC(=O)CC3NC(=O)c4ccccc43)cnc12` (stereo not given) → NPYLR7 agonist: -6; NPYLR7 agonist max-min: -8

# The list goes on:
SMILES,NPYLR7 agonist,NPYLR7 agonist max-min
CC1=CC[C@@H]2CN(C(=O)CCCn3ccnc3C)C[C@@H]2C1,7,4
O=C(NCc1ccc(Cl)cc1)NCC1CN(c2ccc(Cl)cc2)C(=O)O1 (stereo not given),3,11
CCOC(=O)C1(CC2CCCCO2)CCN(Cc2ccc(F)cc2Cl)CC1 (stereo not given),19,9
COCCN(Cc1cc(NC(=O)COC)ccc1N(C)C)S(=O)(=O)c1ccc(F)cc1,17,17
CCC(C)Nc1nc(-c2ccc(Cl)cc2)cs1 (stereo not given),-4,-5
CCOc1ccc(NS(=O)(=O)C2CCCCC2O)cc1C (stereo not given),5,3
COC(=O)NC1CCN(c2ccccc2C(=O)N2CCN(c3ccc(C)c(C)c3)CC2)CC1,-1,2
O=C(O)c1nn(-c2cccc(F)c2)c(=O)n(Cc2ccccc2Cl)c1=O,19,25
C=CCN(CC(=O)N1CCc2sccc2C1c1ccc(Cl)cc1Cl)S(=O)(=O)c1cccc2cccnc12 (stereo not given),-4,5
COc1ccc(CC(=O)Nc2ccc(-n3nc(OCC(C)C)nc3-c3ccccc3F)cc2)cc1,19,15
CCOC(=O)c1nn(-c2ccccc2C)c(=O)cc1NCc1cccc(OC)c1,9,4
CCNC(=O)Cn1c(CO)cnc1SCC(=O)Nc1ccccc1C(F)(F)F,21,20
COc1cc(-c2[nH]ncc2CN2CCC(C(O)c3cccs3)CC2)cc(OC)c1OC (stereo not given),-1,-3
CCNC(=O)N1CCCC1C(=O)Nc1ccccc1-c1ccc(OC)cc1 (stereo not given),18,7
CC(C)CNC(=O)CC1Nc2ccccc2NC1=O (stereo not given),-8,-14
COC(=O)c1cc2cc(Br)ccc2oc1=O,-5,-3
CCO[C@H]1[C@H](NC(=O)c2ccco2)c2ccccc2C12CCN(C(=O)[C@H]1C[C@@H]3C=C[C@H]1C3)CC2,1,-2
COc1ccc(C(=O)Nc2c(C)nc3sccn3c2=O)c(OC)c1,5,-8
ClC(Cl)(Cl)C1c2ccccc2Nc2ccccc21,4,-2
CC1CN(c2cc(Oc3ccccc3F)ncn2)CCN1Cc1ccc2c(c1)OCCO2 (stereo not given),11,12
CC(=O)c1c(C)cc(C)c(CN2CCC3(CC2)CNC(=O)C3)c1C,-5,-6
CN(C)c1ccc(C(=O)N2CCN(c3nc4ccccc4nc3-c3ccccc3)CC2)cc1,7,6
CSc1ccc(-c2nc(CN3CCc4c(c(CO)nn4C)C3)c(C)o2)cc1,1,-3
Cc1cc(NC(=O)c2ccco2)sc1C(=O)NC(C)c1ccccc1Br (stereo not given),7,11
NC(=O)C1CCC(C(F)(F)F)N(CC(=O)NCc2ccc(F)cc2)C1 (stereo not given),5,1
CCc1ccc(CNC(=O)CS(=O)(=O)C(C)C(C)C)s1 (stereo not given),1,-1
COC(=O)CC1(CC(=O)N[C@H]2CO[C@H]3[C@@H]2OC[C@H]3OCc2ccccc2)CCCC1,-11,-15

# Of the compounds above, two have a COOH group:
SMILES,NPYLR7 agonist,NPYLR7 agonist max-min
Cn1c(C(=O)O)ccc1[N+](=O)[O-],2,10
O=C(O)c1nn(-c2cccc(F)c2)c(=O)n(Cc2ccccc2Cl)c1=O,19,25

# Retrieved one by one from above, 2 records:
SMILES,NPYLR7 agonist,NPYLR7 agonist max-min
CN(C)c1ccc(C(=O)N2CCN(c3nc4ccccc4nc3-c3ccccc3)CC2)cc1,7,6
NC(=O)C1CCC(C(F)(F)F)N(CC(=O)NCc2ccc(F)cc2)C1 (stereo not given),5,1
